# Bfl-1 A1 inh – inhibitors of the anti-apoptotic protein A1, read as caspase activation | caspase activation, % (concentration not given with the values) | MEF A1-2A-BIM cells, Caspase-Glo 3/7 luminescence, 3 h; percent of clofoctol response, vehicle zero | actives 0.066% (n = 330,000);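 active = over half of replicate activation scores above 10%, or exactly half above 10 with the replicate mean above 10; inconclusive = replicate mean below 10 yet half the replicates above 10; inactive = over half of replicates below 10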;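 also: wells of about 30 µL received 50 nL stock; many hits fall short of the cut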
# Ecoli rRNA inh – inhibitors of bacterial rRNA selective over humanized ribosomes; E. coli WT GFP vs humanized-ribosome RFP mutants, fluorescence, 24 h; stronger effect = lower value; DMSO median 0, no signal -100; GFP signal change (wild-type ribosome), % (test concentration not listed); actives 1.6% (n = 350,000);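 active = significant combined selectivity score with lowered wild-type GFP, culture density cut under 30%, mutant RFP and density less affected; inactive = any of these conditions unmet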; also: one replicate is shown; some compounds called inactive have numbers as strong as hits
# Beta cell apopt – blocks beta cell apoptosis; INS-1E cytokine-induced death, ATP luminescence, 48 h; percent of positive-control rescue, neutral wells zero; protection from apoptosis, % (test concentration not listed); actives 0.8% (n = 300,000); AID 435005;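 active = all replicates at 75% or more, or half of them and the mean; inconclusive = half reach 75% but not the mean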;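 also: 0% = cytokine-treated negative control wells and 100% = positive control rescue; higher means more ATP so stronger rescue from cytokine killing; wells of about 40 µL received 100 nL stock; the first replicate is given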
# T cruzi inh – blocks replication of Trypanosoma cruzi | actives 1.4% (n = 300,000) | inhibition, % (test concentration not listed) | T. cruzi beta-gal in NIH3T3, luminescence, 90 h | AID 1885;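 active = mean inhibition across valid replicates above about 55%, limit read from the data; inconclusive = mean below that limit but half or more replicates reach it; inactive = mean below it, under half of replicates reach it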;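 also: signal also drops with host cell toxicity which is not excluded here; 0% = plate median of DMSO wells and 100% = zero luminescence signal; higher percent means less beta-gal luminescence so fewer parasites; stock transfer was 50 nL into about 50 µL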
# RanGTP-Impb inh – disruptors of Ran-importin-beta complex formation – biochemical, FRET, CFP-Ran, YFP-importin-beta, homogeneous, primary screen; actives 1.1% (n = 300,000); cell-free CFP-Ran/YFP-importin-beta FRET ratio; inhibition, % (test concentration not listed);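 active = most replicates above 15%; inconclusive = exactly half above 15%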;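 also: 0% = DMSO wells and 100% = Ran loaded with GDP instead of GTP; wells of about 40 µL received 100 nL stock; the first replicate is given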
# AF4-AF9 inh – blocks AF4 peptide binding to human AF9; P42568; AlphaScreen, biotin-AF4 peptide binding to FLAG-AF9; inhibition, % at 10 µM; actives 0.47% (n = 350,000);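 active = every replicate reaching a set inhibition limit, whatever the replicate mean, cut at about 25% in these data; inconclusive = mean inhibition reaches that limit but some replicates miss it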;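 also: 0% = plate neutral control median and 100% = total signal loss; the record names both 10 and 1 µM as test concentration; the first replicate is given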
# Target sequence (P42568 whole entry, looked up): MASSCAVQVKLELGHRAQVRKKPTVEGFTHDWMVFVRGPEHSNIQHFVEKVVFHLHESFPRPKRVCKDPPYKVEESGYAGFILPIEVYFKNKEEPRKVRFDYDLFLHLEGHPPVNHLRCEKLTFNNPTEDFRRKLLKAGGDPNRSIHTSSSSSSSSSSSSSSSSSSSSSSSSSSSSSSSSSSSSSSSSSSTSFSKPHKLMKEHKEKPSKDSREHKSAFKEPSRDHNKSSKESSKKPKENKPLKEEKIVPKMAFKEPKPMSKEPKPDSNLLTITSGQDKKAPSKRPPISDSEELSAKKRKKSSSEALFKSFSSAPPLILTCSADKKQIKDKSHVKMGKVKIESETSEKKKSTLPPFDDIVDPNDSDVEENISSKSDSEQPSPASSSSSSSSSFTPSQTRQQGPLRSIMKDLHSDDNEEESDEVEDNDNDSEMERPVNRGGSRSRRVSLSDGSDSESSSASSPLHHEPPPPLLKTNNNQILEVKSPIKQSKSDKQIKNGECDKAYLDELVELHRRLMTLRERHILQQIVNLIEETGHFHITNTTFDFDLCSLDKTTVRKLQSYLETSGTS
# Calb FLC – C. albicans growth modulation with fluconazole. C. albicans CaCi-2 (fluconazole-resistant clinical isolate) + fluconazole, Alamar Blue growth, 48 h. growth inhibition, % (test concentration not listed). actives 0.57% (n = 300,000). AID 1979;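 active = most replicates above 75%; inconclusive = exactly half above 75%; inactive = most below 75%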;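 also: all wells also contain fluconazole at 8 µg/ml as a sub-toxic cotreatment; 0% = median of DMSO wells and 100% = median of geldanamycin control wells; wells of about 8 µL received 7.5 nL stock; the first replicate is given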
# Vif A3G – HIV-1 Vif–A3G interaction blockers – biochemical, TR-FRET, GST-Vif 1-94, biotin-A3G peptide, dose response retest, primary screen (AID 1117319); TR-FRET GST-Vif / biotin-A3G peptide binding; higher % means a stronger effect; test concentration not given here; strong numbers were not always called active; inhibition, %; hits with a dose series show IC50 in µM; actives 0.57% (n = 260,000);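 active = above the screen mean plus three standard deviations and confirmed in dose response; inconclusive = results disagree or hit not tested in dose response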;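 also: Vif residues 1-94 fused to GST binding biotinylated APOBEC3G peptide 110-148; 0% = full assay without inhibitor and 100% = GST in place of GST-Vif; retest series ran down from 100 µM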
# Ecoli rRNA inh OD600 – recorded beside Ecoli rRNA inh, whose call it bears; OD600 change, %; measured here: OD600 growth;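 optical density of the mix in the first replicate; 0 = DMSO median and -100 = no signal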
# Ecoli rRNA inh RFP – also measured in Ecoli rRNA inh; calls as there; RFP signal change, %; measured here: RFP humanized mutant strains;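 first replicate; 0 = DMSO median and -100 = no signal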
# The depositor's hits bear a star; ? = inconclusive; / = no result given.
Structure,Bfl-1 A1 inh,Ecoli rRNA inh,Ecoli rRNA inh OD600,Ecoli rRNA inh RFP,Beta cell apopt,T cruzi inh,RanGTP-Impb inh,AF4-AF9 inh,Calb FLC,Vif A3G
COc1cc(C(=O)COC(=O)c2c(C)noc2C)cc(OC)c1OC,-2.8,1,-4,2.7,-1,/,/,-4.4,/,/
Cc1ccc(CNC(=O)CNC(=O)c2c(C)nn(C)c2Cl)cc1,-1.0,18,23,2.5,-4,-2,0.5,-1.4,-13,3%
O=C(Nc1ccc2snnc2c1)Nc1cccc2ccccc12,-0.4,/,/,/,41,16,3.5,/,-5,?
CC(=O)c1ccc(NC(=O)c2ccc([N+](=O)[O-])o2)cc1,-2.4,-15*,4.3*,0.5*,-8,6,-1.6,1.2,6,28%
COc1ccc(S(=O)(=O)N2CCCCCC2)cc1NC(=O)Cc1ccccc1,-0.8,-4,7,0.3,4,39,-2.9,0.4,-4,-7%
C=CCNc1nc(NCC)nc(N2CCOCC2)n1,-0.3,/,/,/,5,-14,-1.5,/,1,24%
O=C(c1cn(-c2ccccc2)nc1-c1ccc(F)cc1)N1CCOCC1,-0.8,/,/,/,/,-3,-2.7,/,24,18%
CCOC(=O)C(NC(=O)Nc1ccc(C(N)=O)cc1)(c1ccccc1)C(F)(F)F (stereo not given),0.5,/,/,/,-6,0,1.5,/,-4,6%
CN(CCc1cnn(C)c1)C(=O)CCc1nnc(CCCc2ccccc2)o1,-5.8,/,/,/,-4,-4,1.6,-1.3,1,-4%
O=C(Nc1nc2c(s1)CCCC2)c1cc(-c2ccccc2)nc2ccccc12,0.3,/,/,/,17,39,-0.5,/,1,0%
CC(=O)N1CCOc2ccc(S(=O)(=O)NCCc3ccc(S(N)(=O)=O)cc3)cc21,0.0,13,7,-2.6,-8,-2,1.1,0.5,-12,4%
Cc1nn(-c2ccc(Cl)cc2Cl)c(=O)c2ccccc12,-0.1,-6,-3,-1.4,-6,-2,1.2,0.9,51,-6%
O=C(OCCN(CCOC(=O)c1ccncc1)S(=O)(=O)c1cccs1)c1ccncc1,0.6,/,/,/,0,-7,0.7,/,7,-3%
Cc1cccc(OCCCC(=O)Nc2nc3ccccc3[nH]2)c1,0.4,7,1,-0.5,13,-41,0.1,-0.5,12,30%
Cc1ccc2nc(-c3ccccc3)nc(SC(C)C(=O)NCc3cccs3)c2c1 (stereo not given),0.2,/,/,/,15,-6,4.8,/,2,3%
O=C(COc1ccc(F)cc1)NCCNC(=O)COc1ccc(F)cc1,-0.4,0,6,-0.1,-2,/,/,-2.2,/,/
C1COCCNCCOCCOCCOCCN1,0.2,/,/,/,-15,3,-2.7,/,0,29%
CC(C)C(NC(=O)c1ccc(F)cc1)C(=O)N1CCN(C(=O)c2ccco2)CC1 (stereo not given),-0.4,11,10,0.7,-2,/,/,1.4,/,-2%
Cc1ccc(C)c(SCC(=O)NNC(=O)c2ccccc2)c1,0.0,-5,-6,1.2,0,-6,-0.4,-3.2,0,0%
COc1cccc(NC(=O)CN(C)C(=O)CC(C)c2ccccc2)c1 (stereo not given),0.5,7,10,3.7,-9,-26,?,-1.1,-5,/
Cc1cc(=O)c(C(=O)Nc2cccc(N3CCCC3=O)c2)nn1-c1ccccc1F,-1.2,-9,-4,1.2,-1,/,/,-0.4,/,-4%
Cn1c2c(c(=O)n(C)c1=O)CN(CCN1CCNCC1)CN2,0.5,/,/,/,-2,-6,5.1,/,-3,-5%
O=C(O)c1ccccc1-c1cn2cc(Cl)ccc2n1,-1.7,10,15,0.3,/,1,3.0,0.4,1,/
Clc1cccc(-c2nc(-c3ccccn3)no2)c1,-11,/,/,/,14,6,-3.6,/,0,-10%
CCn1cc([N+](=O)[O-])c(C(=O)Nc2ccn(Cc3ccccc3)n2)n1,-0.3,9,10,1.6,-10,0,-4.3,2.7,7,0%
CCCC(=O)Nc1cc(S(=O)(=O)N2CCOCC2)ccc1N1CCCCC1,-1.2,-3,-4,1.6,-2,/,/,0.9,/,5%
O=C1c2ccccc2C2(c3ccccc3)N1CCN2C(=O)C(Cl)(Cl)Cl (stereo not given),-0.8,-38,-72,6.7,0,1,1.8,5.4,-4,-6%
CCN=c1sc(C(=O)OC)cc(=O)n1CC,0.4,/,/,/,-4,-11,0.2,/,?,1%
O=C(CCc1ccc(S(=O)(=O)N2CCOCC2)cc1)Nc1cc(Cl)ccc1N1CCOCC1,?,/,/,/,5,5,-2.7,/,2,3%
COc1cc(C2C(C#N)=C(N)Oc3n[nH]c(-c4cccs4)c32)cc(OC)c1O (stereo not given),0.4,-3,3,-1.6,3,-5,?,4.3,36,17%
CN1C(=O)CC(Nc2cccc3cccc(N)c23)C1=O (stereo not given),-0.4,/,/,/,4,-14,?,/,2,15%
O=C1Nc2cc(C(=O)NCCCN3CCCC3)ccc2S/C1=C/c1ccccc1F,-0.9,-15,-32,12,/,15,0.6,13,16,/
Cc1cc(C)nc(S/C=C/C(=O)c2ccc(F)cc2)n1,-1.2,/,/,/,2,-20,-4.1,/,8,/
Nc1cc(OC(=O)c2ccccc2Br)nn1S(=O)(=O)c1ccccc1,0.2,/,/,/,3,-6,6.4,/,12,6%
CC(C)NCC#CCOc1ccc(Cl)cc1,0.9,15,10,0.4,-11,8,1.2,-1.2,-1,4%
CC(C)CCNC(=O)CC1C(=O)N(Cc2ccccc2)C(C)c2nc3ccccc3n21 (stereo not given),-0.2,/,/,/,-15,8,0.0,/,-4,-2%
CC(C)(C)NS(=O)(=O)c1ccc(/C=C/C(=O)O)cc1,0.3,10,1,0.5,1,7,1.8,-1.4,6,5%
CCOc1cc(C=O)cc(Br)c1OCC(N)=O,-0.1,17,20,7.5,0,-9,9.5,-1.3,-6,-9%
O=C(c1nc(SCc2ccc([N+](=O)[O-])cc2)n2ccccc12)C(F)(F)F,?,5,9,1.6,-1,11,0.6,-0.3,6,6%
CC(C)(CO)NCc1cccs1,0.0,13,25,0.9,-4,-4,?,-0.4,-29,/
COC(=O)CSC1=C(C#N)C(c2ccc(C)o2)CC(=O)N1 (stereo not given),-0.9,9,1,0.8,-2,-39,-2.3,-0.1,1,/
CN1C(=O)C(=O)/C(=C(/O)c2ccccc2)C1c1ccccc1 (stereo not given),?,2,6,-3.0,-6,-8,-1.5,0.6,0,/
CCOC(=O)N1CCC(=NNS(=O)(=O)c2cccc([N+](=O)[O-])c2)CC1,0.3,/,/,/,0,-6,5.4,/,16,4%
C#CCOc1ccc(Cl)cc1/C=C1/C(=O)ON=C1C,0.1,3,10,0.5,7,-15,?,1.6,-6,5%
CCOC(=O)/C=c1\s/c(=C\c2ccc3cc(OC)ccc3c2)c(=O)n1CC(=O)NCC1CCCO1 (stereo not given),2.8,/,/,/,0,-8,6.4,/,-2,-1%
CCOc1ccc2nc(SCC(=O)N(CCOC)c3c(N)n(Cc4ccccc4)c(=O)[nH]c3=O)[nH]c2c1,0.2,6,3,-0.1,/,-3,1.1,-0.8,0,1%
O=C(CCCN1C(=O)/C(=C\c2cccs2)SC1=S)Nc1cccnc1,0.4,-1,8,36,-7,1,-0.8,1.6,0,/
COc1ccccc1-c1nn(Cc2ccccc2)cc1/C=C/C(=O)O,0.3,7,2,-3.9,-7,-5,0.1,1.2,10,0%
O=C(CCc1nc2ccccc2c(=O)[nH]1)Nc1nnc(SCc2ccc(F)cc2)s1,1.0,2,8,0.4,-2,0,-1.7,2.0,2,1%
COc1ccc(C(=O)Nc2cc(-c3nn4c(C)nnc4s3)ccc2C)cc1,-0.1,-1,-7,-0.6,3,-12,2.1,2.4,5,-3%
CC(=O)Nc1cccc(NC(=O)C2CCCN2C(=O)Nc2ccccc2C)c1 (stereo not given),0.6,/,/,/,-14,0,-1.4,/,15,15%
CN(Cc1ccccc1)C(=O)C1CCC(CNS(=O)(=O)c2cccc3cccnc23)CC1 (stereo not given),0.1,-25,-22,16,-2,9,7.0,11,-9,0%
Cc1cc2cc(C(c3nnnn3CC3CCCO3)N3CCCc4ccccc43)c(=O)[nH]c2cc1C (stereo not given),/,/,/,/,/,-3,-0.9,/,15,11%
O=[N+]([O-])c1ccccc1OCC(O)CNC1CCCC1 (stereo not given),0.5,-1,0,-8.4,-3,-15,4.9,7.3,-7,-2%
Clc1ccc(Cn2ncc3c(NCCN4CCOCC4)ncnc32)cc1,0.8,/,/,/,/,-12,2.5,/,4,1%
COc1cc(OC)cc(C(=O)NCCNc2nc3cc(C)cc(C)c3cc2C#N)c1,0.2,11,7,0.7,8,6,18*,0.2,11,-29%
O=C(CN1CCOc2ccccc21)N1CCCC1,-0.5,9,13,0.0,-1,-2,-2.6,-1.7,0,6%
COc1cc(C(=O)OCCC(C)C)cc(OC)c1O,-0.7,-1,6,-0.5,2,-6,1.0,-1.0,1,8%
Cn1c(-c2ccc(C=O)s2)nc2ccccc21,-5.7,/,/,/,-1,-5,5.5,/,-2,8%
CN1N=C(C(=O)N2CCCC(Nc3ccc(F)c(F)c3)C2)CCC1=O (stereo not given),-0.7,6,4,-0.8,/,3,-0.7,-1.0,-7,-2%

# Remaining list, next part.
Structure,Bfl-1 A1 inh,Ecoli rRNA inh,Ecoli rRNA inh OD600,Ecoli rRNA inh RFP,Beta cell apopt,T cruzi inh,RanGTP-Impb inh,AF4-AF9 inh,Calb FLC,Vif A3G
CCCCc1cn([C@@H](CCCCN)C(=O)N2CCNCC2)nn1,-0.5,16,8,-3.2,4,-15,-3.5,3.2,-3,12%
CSc1nc2nc(-c3ccccc3)cc(=O)n2[nH]1,0.8,/,/,/,-8,16,1.4,/,-2,-4%
CC(C)Cn1c(N)cc(=O)n(C)c1=O,0.9,9,18,-4.9,-5,1,2.5,-0.4,9,-9%
Cc1ccnc(NC(=O)CCS(=O)(=O)c2ccccc2)c1,1.2,5,10,-1.4,-3,-1,?,4.0,-12,7%
Cc1ccsc1/C=N\Nc1cn[nH]c(=O)c1Cl,-2.6,-6,-22,-8.4,3,1,-0.6,2.7,27,-3%
COc1cccc(N(C(=O)CNC(=O)c2ccco2)C(C(=O)NC2CCCCC2)c2cccnc2)c1 (stereo not given),-0.1,-3,8,1.0,0,-6,-5.0,-2.1,9,/
COC(=O)c1cn(CC(=O)Nc2ccc(F)cc2)c2ccccc12,0.0,2,-9,1.1,-5,-2,1.8,0.3,17,19%

# An excerpt; count on the stated rates, not on these rows.
